# Cruzain inh Det – inhibitors of Trypanosoma cruzi cruzain with detergent. Potency, µM, inactives show max response, negative = inhibition, actives largely listed as inhibitors. P25779. purified cruzain, Z-FR-AMC fluorescence, 0.01% Triton. 0.43% of 200,000 active;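 also: plate controls were neutral wells for no effect and buffer without enzyme for full effect; nearly all actives have a fitted effect of over 40% in size; top concentration of the series not given in the record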
# Target sequence (P25779 123-467 limits assumed): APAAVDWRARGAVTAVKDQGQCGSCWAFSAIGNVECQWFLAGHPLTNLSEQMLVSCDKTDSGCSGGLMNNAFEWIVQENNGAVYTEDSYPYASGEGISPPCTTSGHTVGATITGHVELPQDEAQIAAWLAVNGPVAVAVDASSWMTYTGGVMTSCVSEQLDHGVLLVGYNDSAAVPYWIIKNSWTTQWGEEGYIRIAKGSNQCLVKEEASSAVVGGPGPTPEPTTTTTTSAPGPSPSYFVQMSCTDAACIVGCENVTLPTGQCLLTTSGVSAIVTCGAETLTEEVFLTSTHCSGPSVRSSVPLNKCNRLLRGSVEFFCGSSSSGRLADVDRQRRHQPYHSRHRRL
#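 Cysteine protease activity tested under reducing, mildly acidic conditions (100 mM sodium acetate pH 5.5, 5 mM DTT) plus 0.01% Triton X-100. Cruzain 1.5 nM; substrate Z-FR-AMC 2 uM; 15 min compound preincubation at room temperature.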
# RE007 growth inh – less growth of the S. pombe RE007 Vpr strain. S. pombe RE007 Vpr strain, BacTiter-Glo ATP luminescence, 24 h; control for the full effect not named in the record. Potency, µM (top dose mostly 92.2 µM), without a hit: at the highest dose activity change, negative = less growth. 0.21% of 360,000 active; active = well fitted falling curve with a large enough effect; inconclusive = small, poorly fitted or top-dose-only effect; inactive = no such curve, though single readings can be large or run the other way;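 also: % is scaled to controls: 0 for no effect and ±100 for the full control effect; nearly all actives have a fitted effect of over 50% in size; the assay follows cell death caused by Vpr and the record does not say whether a fall means rescue or toxicity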
#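 Fission yeast RE007 carrying one integrated HIV-1 vpr copy, seeded at OD 0.01 in PMG+AL medium with 23 nL pinned compound. Grown 24 h at 30 degrees; viability read by BacTiter-Glo luminescence after 5 min.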
# NS1 inh – blocks influenza NS1 protein function; S. cerevisiae slowed by influenza A NS1, growth recovery by OD600; AID 2326; 0.4% of 270,000 active; Potency, µM (highest dose often 46.1 µM), for the others: at the top dose activity, positive = more growth; active means well fitted rising curve with a large enough effect; inconclusive means small, poorly fitted or top-dose-only effect; inactive means no such curve, though single readings can be large or run the other way; also: nearly all actives have a fitted effect of over 50% in size
#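 In this qHTS, NS1 from influenza A is expressed in budding yeast, where it slows growth. Cells are switched from glucose to 2% galactose medium (pH 6.0, -URA), treated with compound, and growth recovery is read at OD600.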
# MARV entry inh – Marburg virus entry inhibition; Marburg virus pseudotyped entry inhibition, cell reporter; control for the full effect not named in the record; about a third of the inactives were read at about 46 µM; Potency, µM (highest dose often 37.8 µM), for the others: at the highest dose activity change, negative = inhibition, most hits filed as inhibitors; 1.8% of 300,000 active; AID 540276; active = well fitted inhibition curve with a large enough effect; inconclusive = small, poorly fitted or top-dose-only effect, or effect the other way; inactive = flat fitted curve, though single readings scatter; tested in HEK293 cells; about a fifth of its hits are not listed in these tables; also: % is scaled to controls: 0 for no effect and ±100 for the full control effect; luciferase read-out
# Lassa entry inh – Lassa virus entry inhibition. Lassa virus pseudotype entry inhibition, cell reporter; control for the full effect not named in the record. 1.2% of 300,000 active. AID 540256. Potency, µM (highest dose often 37.9 µM), inactives show top-dose activity change, negative = inhibition, most hits filed as inhibitors; active means well fitted inhibition curve with a large enough effect; inconclusive means small, poorly fitted or top-dose-only effect, or effect the other way; inactive means flat fitted curve, though single readings scatter; tested in HEK293 cells; also: % is scaled to controls: 0 for no effect and ±100 for the full control effect; nearly all actives have a fitted effect of over 50% in size; luciferase read-out
# 2A StopGo – FMDV 2A StopGo reporter, luciferase signal; human cells with a luciferase reporter of 2A StopGo recoding; control for the full effect not named in the record; Potency, µM (series often up to 57.9 µM), for inactives: at the top dose signal change, negative = less light; 1.2% of 410,000 active; AID 1159524; active = well fitted falling curve with a large enough effect; inconclusive = small, poorly fitted or top-dose-only effect; inactive = no such curve, though single readings can be large or run the other way; tested in HEK293T cells; also: % is scaled to controls: 0 for no effect and ±100 for the full control effect; nearly all actives have a fitted effect of over 45% in size; luciferase light after 4 h
# SARS PLpro yeast – inhibitors of SARS-CoV papain-like protease in yeast | S. cerevisiae expressing SARS-CoV PLpro, growth rescue; control for the full effect not named in the record | Potency, µM (titrated, usually from 32.9 µM), for the others: top-dose activity, positive = growth rescue | 0.19% of 330,000 active; active means well fitted rising curve with a large enough effect; inconclusive means small, poorly fitted or top-dose-only effect; inactive means no such curve, though single readings can be large or run the other way; also: 0% is about no effect; nearly all actives have a fitted effect of over 55% in size; growth read by luminescence after 48 h
# Cruzain inh noDet – cruzain (T. cruzi) inhibition without detergent. purified cruzain, Z-FR-AMC fluorescence, no detergent. Potency, µM, for the others: max response, negative = inhibition, usual class: inhibitors. 2.3% of 200,000 active. AID 1476;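 also: plate controls were enzyme without inhibitor for no effect and buffer without enzyme for full effect; nearly all actives have a fitted effect of over 40% in size; top concentration of the series not given in the record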
#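 Purified cruzain at 1.5 nM, pre-incubated 15 min with compound at room temperature in 100 mM sodium acetate pH 5.5, 5 mM DTT, 0.00005% Triton X-100. Reaction started with 2 uM Z-FR-AMC; AMC fluorescence increase over 60 s gives rate.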
# * hit, by the source's call; ? = inconclusive; · = no result given; & = joins results of further samples; [ ] = dose if it differs, or a comment. Unless noted, calls follow the shape of the dose curve; as a rule, active = well fitted curve in the direction sought with a large enough effect; inconclusive = small, poorly fitted or top-dose-only effect, or another doubt; inactive = no such curve, though single readings can be large; an effect the other way counts as inactive or inconclusive. Potency is read from the fitted curve at half-maximal effect.
# Each structure is followed by: Cruzain inh Det, RE007 growth inh, NS1 inh, MARV entry inh, Lassa entry inh, 2A StopGo, SARS PLpro yeast, Cruzain inh noDet
CCOC(=O)C1=C(c2ccccc2)N=C2SCC(=O)N2C1c1ccc(O)c(OC)c1 (stereo not given)
    -1.7%, -18.2%, ?, 8.9%, 7.7%, ·, 1.2%, 0.8%
CCOC(=O)C1CCN(C(=O)COc2ccc(S(=O)(=O)NC(C)C)cc2Cl)CC1
    1.6%, 12.0%, 0.7%, 5.3%, 2.8%, -1.6%, -4.8%, 9.2%
COc1ccc(/C=C/C(=O)NC(=S)N2CCOCC2)cc1
    ·, -3.2%, 0.0%, 12.1%[46.1 µM], 4.4%[46.1 µM], 49.5%[activator], -0.3%, ·
CS(=O)(=O)c1cccc(C(=O)N(CCc2ccccc2)Cc2cccs2)c1
    ·, -3.1%, -19.5%, ?, ?, 48.2%[activator], -1.1%, ·
CCOc1ccc(OCC)c(NC(=O)C2CCCN(S(=O)(=O)c3ccc4c(c3)oc(=O)n4C)C2)c1 (stereo not given)
    -0.3%, ·, ·, 12.6%[46.1 µM], 18.9%[46.1 µM], -1.8%, ·, 3.1%
Cc1ccc2nc(C)cc(Nc3ccc4c(c3)OCCO4)c2c1
    -0.4%, 5.0%, -7.5%, ?, ?, ?, 6.3%, -9.6%
CC(=O)Oc1cccc(C2C3=C(CC(C)(C)CC3=O)Nc3ccccc3N2C(C)=O)c1 (stereo not given)
    ·, -7.3%, 8.9%, -14.6%, -12.8%, -14.6%, 3.5%, ·
CSCCC(NS(=O)(=O)c1ccc2[nH]c(=O)c(=O)[nH]c2c1)C(=O)O (stereo not given)
    ·, 0.8%, 2.2%, 9.0%, 16.2%, -11.4%, 0.6%, ·
Cc1nn(-c2ccccc2)c(C)c1/C=N\N1CCN(c2ccc(Cl)cc2)CC1
    -1.6%, -24.1%, -10.3%, -1.5%[46.1 µM], -22.3%, ?, 1.5%, 3.8%
COc1ccc(C(=O)N/C(=C\c2cn(S(=O)(=O)N(C)C)c3ccccc23)C(=O)NC(C)C)cc1
    ·, 16.7%, ·, 16.5%[46.1 µM], -11.1%[46.1 µM], -2.2%, -0.2%, ·
O=C1/C(=C/c2ccc3c(c2)OCO3)CCC/C1=C\c1ccc2c(c1)OCO2
    -5.1%, -12.8%, -25.1%, -24.2%&-6.1%, 0.2%&8.3%, -3.5%, -6.6%, -11.7%
CC(=O)c1cccc(NC(=O)Cn2nc(C)n3cccc3c2=O)c1
    -0.4%, ·, ·, 11.9%[46.1 µM], 12.6%[46.1 µM], 9.0%, ·, 20.2%
Cc1ccc(C)c(CSCc2nc3ccccc3[nH]2)c1
    ·, 1.2%, -44.0%, ·, ·, ?, -7.3%, ·
CCN(Cc1ccccc1)S(=O)(=O)c1ccc(C(=O)N(CCCN(C)C)c2nc3c(C)c(C)ccc3s2)cc1
    ·, 25.2%, ·, 6.31µM*, 2.82µM*, -13.5%, -11.2%, ·
O=C(CSc1nc2ccsc2c(=O)n1Cc1ccc(F)cc1)NCc1ccc(Cl)cc1
    -1.1%, ·, ·, ·, 3.5%[46.1 µM], 9.1%, ·, 1.3%
COc1ccc(NC(=O)Nc2ccc(F)cc2)cn1
    ·, 3.2%, -2.6%, ·, ·, 33.5%[activator], 1.4%, ·
Cc1cccc(CC(C)NC(=O)c2cc(COc3ccc(F)cc3F)on2)n1 (stereo not given)
    ·, -13.2%, -19.0%, ·, ·, -10.5%, -5.2%, ·
C=CCN(C(=O)Cn1nnc2ccccc21)C(C(=O)NCCOC)c1ccc(OC)cc1OC (stereo not given)
    5.0%, -15.6%, -4.5%, 4.1%, 15.1%, 20.5%, -2.7%, -6.7%
COCCCN1CN(S(=O)(=O)c2ccc(Cl)cc2)c2nc3ccccc3nc21
    -8.5%, -13.2%, -42.4%, -2.1%, 26.6%, -0.9%, -5.9%, ?
Cc1ccc(C2(C)NC(=O)N(CC(=O)N(Cc3ccccc3)C(C)(C)C)C2=O)cc1 (stereo not given)
    ·, -7.2%, 5.8%, ?, ?, -9.1%, 2.0%, ·
CCC(CC)C(=O)Nc1nnc(CCc2ccccc2)s1
    ·, -12.6%, -17.1%, 21.8%, 0.4%, -10.4%, -3.2%, ·
O=C(Nc1cc([N+](=O)[O-])ccc1N1CCOCC1)c1ccco1
    ·, -4.0%, 10.1%, 18.0%, ?, -1.3%, 1.5%, ·
CCCCn1c(SCC(=O)O)nc2ccccc21
    7.8%, -6.4%, 5.1%, 5.4%, -26.0%[14.3 µM], 15.4%, 6.8%, -6.3%
CC(=O)c1ccc(NC(=O)c2noc3c2CSc2ccccc2-3)cc1
    -1.5%, ·, ·, 16.3%[46.1 µM], -2.2%[46.1 µM], 31.7%[activator], ·, 0.6%
CCC(C)N1C(=O)NC(=O)C2(Cc3c(ccc4ccccc34)N(C)C2)C1=O (stereo not given)
    -3.3%, 13.8%, -42.0%, ?, ?, ?, -6.8%, -14.8%
CCN(CC(=O)Nc1ccc(OC)cc1)C(=O)c1ccc2c(c1)NC(=O)C(C)S2 (stereo not given)
    ·, 27.0%, ·, 25.5%, 8.1%, 5.7%, 4.3%, ·
CCOc1ccc(-n2c(-c3ccccc3)nnc2-c2ccccc2)cc1
    -0.3%, 2.6%, -0.1%, -30.7%, ?, -16.8%, 0.1%, -9.1%
CC1N=C2c3ccccc3N=C(SCC(=O)NCc3ccc(Cl)cc3)N2C1=O (stereo not given)
    -2.7%, ·, ·, ·, 3.3%[46.1 µM], -19.4%, ·, -12.2%
CC1Cc2ccccc2N1S(=O)(=O)c1cnc[nH]1 (stereo not given)
    1.4%, -7.3%, 4.8%, ?, 8.2%, -19.8%, 2.5%, 7.6%
Cc1nn(C(CC(=O)O)C(=O)O)c(C)c1Br (stereo not given)
    1.6%, 6.5%, 1.8%, -8.4%, 0.8%, ·, 5.6%, -6.9%
CC1(CCCN2C(=O)c3ccccc3C2=O)OCCO1
    ·, 33.6%, ·, 25.3%[46.1 µM], 6.3%, 60.9%[activator], ·, ·
Cc1cccc(NS(=O)(=O)c2ccc(C(=O)N3CCCC3)cc2)c1C
    ·, 4.5%, ·, 2.1%[46.1 µM], 21.8%, -18.5%, -6.6%, ·
O=C(Nc1cccc(-c2ccc(N3CCOCC3)nn2)c1)c1ccc(F)cc1F
    ·, 6.3%, ·, -5.2%, ?, 44.6%[activator], -2.3%, ·
Cc1cc(NC(=O)CSc2nnc3ccc(-c4ccc(F)cc4)nn23)no1
    ·, 6.4%, ·, -0.5%[46.1 µM], 10.2%, -3.3%, -5.2%, ·
Cc1oc(-c2ccccc2)nc1CN1C(=O)CN=C(c2ccccc2)c2ccccc21
    -5.1%, 1.6%, -81.3%, 0.6%, 6.1%, 0.0%, -44.0%, 0.0%
Cc1cc(C(F)(F)F)nc(Nc2nc(C)c3ccccc3n2)n1
    -1.9%, -5.5%, 24.4%, -7.0%, -16.8%, -9.6%, 0.2%, 2.3%
N#CCSc1nc2ccccc2c2nc3ccccc3n12
    -4.0%, -2.0%, -20.8%, ?, 2.7%, ?, -29.6%, -10.7%
CC(C)CC(NC(=O)C(CC(C)C)NC(=O)OC(C)(C)C)C(=O)O (stereo not given)
    -2.3%, 13.0%, 3.6%, 13.4%, 6.1%, 6.2%, -2.4%, 17.3%
Cc1ccc(NC(=O)Nc2nnc(-c3ccncc3)s2)cc1
    ·, -16.3%, 0.8%, ·, ·, ?, -0.3%, ·
CC(=O)c1ccc(OCC(C)Oc2ccc(C#N)cc2)cc1 (stereo not given)
    ·, -1.0%, -35.4%, ·, ·, ?, -3.7%, ·
COc1cc(OC)c2c(-c3ccccc3)cc(=O)oc2c1C(CCN1CCCC(C)C1)c1ccc2c(c1)OCO2 (stereo not given)
    ·, -1.7%, -3.2%, ·, ·, 11.9%, 2.6%, ·
Cc1cccc(C)c1NC(=O)N1CC(C)OC(C)C1 (stereo not given)
    ·, 3.8%, 7.7%, -3.1%[46.1 µM], 3.3%[46.1 µM], -10.1%, 0.5%, ·
C=C(C)C(=O)Nc1nnc(-c2ccccc2C)s1
    ·, 2.6%, 9.4%, -0.4%, -10.3%, 30.7%[activator], 0.3%, ·
O=C(c1cc(-c2ccc(Cl)cc2Cl)on1)N1CCOCC1
    -0.3%, 13.6%, -28.1%, ?, ?, -18.2%, -9.6%, 5.4%
COc1ccccc1NC(=O)Nc1ccncc1
    ·, -10.1%, ·, 6.3%, 13.1%, 7.9%, -4.0%, ·
O=C(CN1CCC(O)(c2cccc(C(F)(F)F)c2)CC1)NCCc1ccccc1
    ·, 15.3%, 1.5%, ?, -27.5%[46.1 µM], ?, 5.6%, ·
Cc1ccc(NS(=O)(=O)c2ccc(-n3cccn3)cc2)cc1Cl
    -15.3%, 1.2%, ·, ·, 10.8%[46.1 µM], 33.6%&48.0%[activator], ·, -8.5%
O=S(=O)(NCCCN1CCOCC1)c1ccc2ccccc2c1
    ·, -9.2%, -8.0%, 0.9%[46.1 µM], 2.8%[46.1 µM], 11.7%, -2.5%, ·
Cc1ccc(C2C(C#N)=C(N)Oc3cc(C)oc(=O)c32)o1 (stereo not given)
    ·, -0.4%, -43.9%, ·, ·, ?, -4.6%, ·
COc1ccccc1CCN1CCCC(CN(C)C(=O)CCC(N)=O)C1 (stereo not given)
    ·, 3.4%, -15.8%, ·, ·, -12.1%, 2.8%, ·
C=C(C)C(=O)OCC(C)C
    -1.1%, -2.4%, ·, ·, ·, -19.3%, -3.6%, -11.5%
CCN(CC)C(=O)Cn1cnc2sc(C)c(S(=O)(=O)N3CCC(C)CC3)c2c1=O
    ·, 2.2%, 15.7%, -12.1%[46.1 µM], ·, -4.6%, -4.2%, ·
c1ccc(-c2cc(-c3nc4ccccc4[nH]3)c3ccccc3n2)cc1
    -4.4%, -12.8%, ?, ?, ?, ?, -72.7%, -17.5%
CC(C)(C)c1ccc(C(=O)NC(=S)Nc2ccc(N3CCOCC3)cc2)cc1
    -7.3%, 10.1%, 0.0%, 0.794µM*, ?, -15.3%, ?, 5.7%

# Screens (PubChem BioAssay)
